# KCNQ2 pot = KCNQ2 (rat) channel potentiation; O88943; CHO-K1 KCNQ2, FluxOR thallium flux fluorescence; hits give high values; B-score at 10 µM; hit rate 0.54% among 310,000; AID 2239;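 active means fluorescence ratio B-score at least 3 SD of library B-scores, with initial fluorescence B-score within 3 SD, cut at about 5.3 in these data; same plate scores as AID 2156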;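 further: B-score of peak minus minimum over baseline fluorescence ratio after K+ and Tl+ stimulus; positive B-score means potentiation of KCNQ2 with more thallium influx and brighter signal; only the inactives scoring about 0 or higher are listed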
# Target sequence (O88943 whole entry, looked up): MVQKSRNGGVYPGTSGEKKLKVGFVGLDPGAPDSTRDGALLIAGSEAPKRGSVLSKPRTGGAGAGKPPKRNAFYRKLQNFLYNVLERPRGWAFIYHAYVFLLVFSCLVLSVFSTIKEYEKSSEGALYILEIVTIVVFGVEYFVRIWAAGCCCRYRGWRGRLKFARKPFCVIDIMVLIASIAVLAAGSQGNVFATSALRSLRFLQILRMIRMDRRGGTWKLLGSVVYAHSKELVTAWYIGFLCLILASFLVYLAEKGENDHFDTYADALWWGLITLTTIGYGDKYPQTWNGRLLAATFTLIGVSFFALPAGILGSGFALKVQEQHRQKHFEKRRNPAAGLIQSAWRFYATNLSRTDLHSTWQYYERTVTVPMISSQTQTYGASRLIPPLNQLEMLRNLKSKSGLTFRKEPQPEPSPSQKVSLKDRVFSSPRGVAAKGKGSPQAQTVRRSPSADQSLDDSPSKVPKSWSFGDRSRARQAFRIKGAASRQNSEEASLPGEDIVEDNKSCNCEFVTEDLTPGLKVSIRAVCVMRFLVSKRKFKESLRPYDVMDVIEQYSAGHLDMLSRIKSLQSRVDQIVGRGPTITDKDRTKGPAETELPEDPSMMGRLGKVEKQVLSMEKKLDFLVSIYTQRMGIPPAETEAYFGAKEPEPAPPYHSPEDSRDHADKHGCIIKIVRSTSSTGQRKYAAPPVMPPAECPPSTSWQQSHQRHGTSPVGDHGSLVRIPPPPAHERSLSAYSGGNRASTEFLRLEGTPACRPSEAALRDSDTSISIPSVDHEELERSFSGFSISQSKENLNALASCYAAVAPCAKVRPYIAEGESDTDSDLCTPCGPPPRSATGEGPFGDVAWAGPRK
# KCNQ2 pot baseline = further read-out of KCNQ2 pot, marked with its call; B-score; compound at 10 µM; measured here: initial fluorescence intensity artifact check;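 brightness before thallium and not channel activity; 0 = typical well and far values either way flag optical interference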
# The depositor's hits bear a star.
molecule,KCNQ2 pot,KCNQ2 pot baseline
CC(=O)c1cccc(NC2c3ccccc3C(=O)N2Cc2ccc3c(c2)OCO3)c1 (centres undefined),1.07,-1.05
CC(C)(C)OC(=O)N1CCC(CC2CC(c3ccccc3)=NO2)(C(=O)O)CC1 (centres undefined),0.3,-2.06
O=C(O)c1ccc(N/N=C/c2ccc(F)c(F)c2)cc1,1,-0.02
COC(CNC(=O)c1cn(C)c2ccc(S(=O)(=O)N3CCOCC3)cc2c1=O)OC,0.3,-0.05
COCCNC(=O)CCCn1c(=O)c2cc(OC)c(OC)cc2n(CC(=O)c2ccccc2)c1=O,0.02,-0.29
Cc1ccccc1N(C)S(=O)(=O)c1nnc(NC(=O)c2ccco2)s1,0.04,0.01
Cc1nn(-c2ccccc2)c(C)c1NC(=O)COc1ccc(F)cc1Cl,0.64,-1.38
O=C(O)/C=C/C(=O)Nc1cccc(C(F)(F)F)c1,0.38,-3.18
O=C(Cn1cnc2c(oc3nc4c(cc32)CCCC4)c1=O)Nc1cccc(Cl)c1,0.11,0.14
CCOc1ccc(NC(=O)CSc2nnc(C)n2CC2CCCO2)cc1 (centres undefined),1.43,-3.48
Cc1nn(CC(=O)NCc2ccccc2)c(=O)c2ccccc12,1.92,-0.98
O=C(COC(=O)c1cccs1)Nc1ccc(S(=O)(=O)N2CCOCC2)cc1,1.01,-1.64
CC1CCN(c2c(NCC3CCC(C(=O)NCCCc4ccccc4)CC3)c(=O)c2=O)CC1 (centres undefined),0.12,-0.17
O=C(CN1CCS(=O)(=O)CC1)N/N=C/c1cccc(C(F)(F)F)c1,0.39,-0.63
O=C(CCc1ccccc1)NNC(=O)COc1ccccc1Cl,0.32,-0.69
O=C(O)c1cc2n(n1)C(C(F)(F)F)CC(C1CC1)N2 (centres undefined),0.02,1.94
CCOC(=O)CNC(=O)Cn1cnc2c(nnn2-c2cccc(Cl)c2)c1=O,1.11,-0.09
CN1CCN(C(=S)Nc2cccc(C(F)(F)F)c2)CC1,0.67,-1.61
O=C(COC(=O)c1cccs1)Nc1cccc(S(=O)(=O)N2CCOCC2)c1,0.75,-0.32
COc1ccc(S(=O)(=O)NCC(=O)N(CC(=O)NCC2CCCO2)Cc2ccc(F)cc2)cc1 (centres undefined),0.38,-1.66

# Three entries from above, ordered by the value under KCNQ2 pot baseline, lowest first.
molecule,KCNQ2 pot,KCNQ2 pot baseline
O=C(O)/C=C/C(=O)Nc1cccc(C(F)(F)F)c1,0.38,-3.18
O=C(CCc1ccccc1)NNC(=O)COc1ccccc1Cl,0.32,-0.69
COC(CNC(=O)c1cn(C)c2ccc(S(=O)(=O)N3CCOCC3)cc2c1=O)OC,0.3,-0.05

# Next results follow.
molecule,KCNQ2 pot,KCNQ2 pot baseline
O=C(NC1CCCCC1)C1CCCN1S(=O)(=O)c1ccc(Cl)cc1 (centres undefined),0.55,0.01
Cc1[nH]c(=O)[nH]c(=O)c1S(=O)(=O)N1CCCC(C(=O)N2CCN(c3ccccc3Cl)CC2)C1 (centres undefined),1.25,0.57
COc1ccc(-n2c(COc3cccc(C)c3)nnc2SCC(=O)O)cc1,1.13,-0.54
Cc1ccc(C)c(N(CC(=O)NCCC2=CCCCC2)S(C)(=O)=O)c1,0.09,-1.02
O=C(NC1CCCCC1)c1sc(=S)n2c1[nH]c(=O)c1ccccc12,0.04,-0.02
O=C(N/N=C/c1cc(Cl)ccc1O)c1cccnc1,0.33,0
COc1ccc(C(O)P(=O)(OCCC(C)C)c2ccc(N(C)C)cc2)cc1OC (centres undefined),0.42,1.35
CC(NC(=O)c1cccc(S(=O)(=O)N2CCN(C)CC2)c1)c1ccc(Cl)cc1Cl (centres undefined),4.1,-1.59
Cc1cc(=O)n(Cc2ccccc2)c(O)c1C#N,1.22,-3.54
Cc1c(C)c2ccc(OCC(=O)N[C@@H](Cc3c[nH]c4ccccc34)C(=O)O)cc2oc1=O,0.52,0.81
CCn1c(SCc2nc3ccccc3[nH]2)nnc1-c1ccncc1,1.31,-0.83
COCCCNC(=S)N1CCC(C(=O)c2ccc(Cl)cc2)CC1,0.22,-2.14
CC(C)(Oc1ccc(Cl)cc1)C(=O)NCc1ccc(S(N)(=O)=O)cc1,1.99,-0.15
Cc1nc(SCC(=O)c2cccs2)c2oc3ccccc3c2n1,6.05*,-0.69*
CCO[C@H]1OC(C(N)=O)=C[C@@H](C)[C@@H]1CCCO,0.05,1.15
O=C(c1ccc(CS(=O)Cc2ccccc2Cl)o1)N1CCN(c2ccccn2)CC1 (centres undefined),0.21,1.12
OCCN(Cc1ccccc1)Cc1nc(CC2CC2)no1,0.81,0
CCCn1c(N)c(C(=O)CSc2nc(C)nc3sc(C)c(C)c23)c(=O)[nH]c1=O,1.76,-0.57
O=[N+]([O-])c1ccccc1S(=O)(=O)Nc1ccc(S(=O)(=O)N2CCOCC2)cc1,1.55,-0.79
CC1=C(C(=O)OC2CCCCCCC2)C(c2ccc(O)cc2)NC(=O)N1 (centres undefined),0.83,-0.46

# Three structures from above, sorted by molecular weight, smallest number first:
molecule,KCNQ2 pot,KCNQ2 pot baseline
COCCCNC(=S)N1CCC(C(=O)c2ccc(Cl)cc2)CC1,0.22,-2.14
CC(C)(Oc1ccc(Cl)cc1)C(=O)NCc1ccc(S(N)(=O)=O)cc1,1.99,-0.15
Cc1[nH]c(=O)[nH]c(=O)c1S(=O)(=O)N1CCCC(C(=O)N2CCN(c3ccccc3Cl)CC2)C1 (centres undefined),1.25,0.57

# Next part.
molecule,KCNQ2 pot,KCNQ2 pot baseline
Cc1ccccc1OCC(=O)Nc1cccc(Cl)c1C,0.3,-0.38
Cc1ccc(OCCn2cc(C(=O)O)c3ccccc32)cc1,0.91,0.31
O=C(Cn1c(CCCO)nc2ccccc21)Nc1ccccc1-c1ccccc1,0.37,0.45
COc1cc(CNc2ccc3[nH]c(=O)[nH]c3c2)ccc1OCc1cccc(C)c1,1.08,-1.05
COc1ccc2[nH]c3c(=O)n(Cc4ccc(C(=O)N5CCCCCC5)cc4)c(=S)[nH]c3c2c1,1.72,-2.14
O=C(Nc1nccs1)c1cc(Cl)nc2ccccc12,1.4,-1.94
COc1cccc(-n2cc(CNCc3cn(C)nc3-c3ccccc3F)cn2)c1,1.34,0.68
COc1ccc(CNC(=O)CCNC(=O)N2CCn3c2nc2ccccc23)cc1,1.22,1.46
CCCOC(=O)/C(=C\c1ccc([N+](=O)[O-])o1)NC(=O)c1ccccc1,1.21,-0.85
COc1ccccc1-n1cnnc1SC1CCOC1=O (centres undefined),0.06,1.17
Cc1ccc(NC(=O)c2ccc(F)cc2F)cc1,2.05,-0.26
O=C(Nc1ccc2oc(=O)ccc2c1)c1ccc(-c2ccc(Cl)cc2)o1,0.4,0.07
CCOc1ccc(NC(=S)NN2C(C)CCCC2C)cc1 (centres undefined),0.94,0.93
COc1ccc(/C=C2\SC(=O)N(CCNC(=O)C3=COCCO3)C2=O)cc1,1.4,-0.43
O=C(Nc1cccc(S(=O)(=O)N2CCCCC2)c1)c1ccc2c(c1)OCO2,7.11*,0.53*
Cc1cc(S(=O)(=O)NC2CCCCC2)ccc1OCC(=O)NCC1CCCO1 (centres undefined),2.27,-2.16
COCCNC(=O)C12CC3CC(C1)CC(c1ccccc1)(C3)C2,0.6,0.45
COc1ccc(S(=O)(=O)N2CCN(C(=O)NCc3ccc(OC)c(OC)c3)CC2)cc1,0.36,-0.08
CC[C@@]12C(=O)N(c3cccc(C)c3)C(=O)N1[C@H](c1ccc(OC)cc1)[C@@H]1C(=O)N(C(C)(C)C)C(=O)[C@@H]12,0.05,-0.19
O=C(CCn1c(=S)oc2ccccc21)Nc1cc([N+](=O)[O-])ccc1F,1.2,0.5

molecule,KCNQ2 pot,KCNQ2 pot baseline
O=C(O)Cc1cn(Cc2cccc(Cl)c2)c2ccccc12,0.07,-2.71
CCCOC(=O)c1ccc(NC(=O)c2cc(=O)[nH]c3ccccc23)cc1,0.79,-1
Cc1[nH]c2ccccc2c1C(c1ccccn1)c1c(C)[nH]c2ccccc12,0.45,-0.24
Cc1cc(O)c(/C=N/Nc2ccc(Cl)cc2)c(=O)o1,1.47,0.25
COc1ccc(NC(=O)CSc2nnnn2C)cc1,1.11,-0.17
CC(C)[C@H](NC(=O)[C@H](Cc1ccccc1)n1c(=O)[nH]c2ccccc2c1=O)C(=O)N[C@@H](Cc1ccccc1)C(=O)O,0.01,-0.9
CSC1=C(C#N)C(c2ccc(C)cc2)C2=C(CCCC2=O)N1 (centres undefined),0.71,-0.01
Cc1ccc(/C=N/NC(=O)CSc2nc3ccccc3c(=O)n2-c2ccccc2C)s1,0.04,0.51
Cc1ccnc(NC(=O)c2ccc(Cl)c([N+](=O)[O-])c2)c1,1.13,1.52
CC(=O)N1CCc2cc(S(=O)(=O)NCCC(=O)NCCc3ccccc3)ccc21,0.07,1.4
Cc1ccccc1C(=O)NC1CCN(CC(=O)NCc2ccc(F)cc2)CC1,0.37,-0.74
CN(CCCNS(=O)(=O)c1cccc2cccnc12)Cc1ccccc1,0.95,0.69
COc1ccc(/C=C/CN2CCC(n3nccc3NC(=O)C3CC3)CC2)cc1,0.8,-1.31
Cc1ccc(/C=C(\C#N)C(=O)Nc2ccccn2)o1,0.81,1.47
CCOc1ccc(N(C(C)C(=O)NCc2ccco2)S(C)(=O)=O)cc1 (centres undefined),0.78,-1.43
COc1ccc(-c2c(C(F)(F)F)oc3c(CN4CCN(C)CC4)c(O)ccc3c2=O)cc1,0.02,-1.82
O=C(C1CCN(S(=O)(=O)c2ccc(F)cc2)CC1)N1CCOCC1,1.11,-0.34
CCN(CC)CC(O)COc1ccc2c(c1)c(C(C)=O)c(C)n2-c1ccccc1 (centres undefined),0.78,-1.41
Cc1cc(C)cc(CC2CC(=O)N(c3nc(C)cc(C)n3)C2=O)c1 (centres undefined),0.01,-0.06
CC(C)COCC1CC2(CC(C)C(=O)CC2=O)C(=O)O1 (centres undefined),1.05,-1.49

molecule,KCNQ2 pot,KCNQ2 pot baseline
C/C(NCCCn1ccnc1)=C(\C#N)C(N)=O,0.55,0.67
O=C1/C(=C\c2ccc(O)c(O)c2)N=C2CCCCCN12,0.02,2.35
COc1ccc(S(=O)(=O)N2CCOCC2)cc1NC(=O)CN1CCCCCC1,0.22,-1.8
CCOC(=O)c1sc(NC(=O)Cn2nnc3sc4c(c3c2=O)CCC(C(C)(C)C)C4)nc1C (centres undefined),0.01,-1.18
CC(C)(C)NC(=S)NCCc1ccccc1,0.05,-2.16
COc1ccc(S(=O)(=O)N2CC(=O)Nc3ccccc32)cc1C,0.34,-0.26
O=C(Cc1ccc([N+](=O)[O-])cc1)Nc1ccc2c(c1)OCO2,0.05,-0.3
C/C=C(\CS(=O)(=O)c1ccccc1)S(=O)(=O)c1ccccc1,1.66,-1.16
CCNc1nc(SCCOc2ccc(C)cc2)nc(N(C)C)n1,1.01,0.04
Cc1c(CC(=O)NCCCO)c(=O)oc2cc3c(cc12)CCC(C)(C)O3,1.59,-1.43
O=C(CCc1ccc(S(=O)(=O)N2CCOCC2)cc1)N1CCCC1,0.19,-0.7
CCc1ccc(N/C(=N/c2nc(C)cc(C)n2)NC(C)=O)cc1,3.07,-0.17
c1cc(Nc2cccc3nccnc23)c2nccnc2c1,1.87,-0.07
Cc1cc(-n2cnc(-c3cn(C)nc3C)n2)no1,1.57,-1.89
O=C(NNC1=C(C(=O)C(F)(F)F)CCC1)c1cccnc1,19.9*,-0.83*
O=C(NC(=S)Nc1cccnc1Cl)c1ccc(F)cc1,0.4,1.25
Cc1ccc(S(=O)(=O)CCC(=O)Nc2ccc(Br)cc2)cc1,0.14,0.39
O=C(Nc1ncccn1)c1ccc(Cl)c([N+](=O)[O-])c1,0.03,-0.13
c1ccc2c(c1)oc1c(NCCCN3CCOCC3)ncnc12,1.96,0.32
COCCNC(=O)C1CCN(Cc2cccc(OCc3ccccc3)c2)CC1,3.22,-0.99

molecule,KCNQ2 pot,KCNQ2 pot baseline
O=C(/C=C/c1ccc2c(c1)OCO2)NCc1ccco1,0.87,-3.92
Cc1ccc(C)c(C(=O)OCC(=O)Nc2cccc(S(=O)(=O)NC3=NCCCCC3)c2)c1,1.84,0.76
CCCc1nnc(SCc2ccc(OC)cc2)n1N,0.13,1.22
O=C(Nc1ccc(C(=O)N2CCOCC2)cc1)c1cccs1,0.02,-0.14
O=C(O)/C=C/C(=O)Nc1ccc(OC(F)F)cc1,0.39,0.9
Cc1ccc(NC(=O)CSc2ccc(-c3cccnc3)nn2)cc1,0.16,0.41
O=C(CSc1nnc(Nc2ccccc2)s1)Nc1cccnc1Cl,1.64,0.41
Cc1ccc(N(CC(=O)NCc2ccccc2)C(=O)c2csnn2)c(C)c1,0.37,2.1
Cc1nc(C)c(-c2ccc(SCc3cccc(F)c3)nn2)s1,0.18,-3.02
CCOc1ccc(/C=C/C(=O)C(C(N)=O)=C2SCCS2)cc1,0.38,0.9
O=C(c1cc2c(s1)-c1ccccc1S(=O)(=O)C2)N1CCCC1,1.74,0.03
CCOC(=O)CN(C(=O)c1ccccc1[N+](=O)[O-])C(C)(C)C,0.08,0.61
CCOC(=O)N1CCN(S(=O)(=O)c2ccc(C(=O)N(CCCN(C)C)c3nc4c(C)c(C)ccc4s3)cc2)CC1,0.07,0.69
COc1ccc(-c2csc3ncn(Cc4ccccc4)c(=O)c23)cc1,0.76,-2.54
Cc1noc(C)c1COC(=O)[C@H](C)NS(=O)(=O)c1ccc(Cl)c(Cl)c1,0.33,-0.37
COc1cccc(-n2nnc3c(=O)n(CC(=O)Nc4ccc(C)cc4)cnc32)c1,0.04,-3.66
CCc1ccc(NC(=O)NNC(=O)CCc2ccccc2)cc1,0.63,-2.41

# Compound activity deposited in PubChem by Johns Hopkins Ion Channel Center.

# This is a subset; rates above refer to the full screens.
